# PINK1 modulator: modulators of PINK1 expression. Potency, µM (highest dose often 76.6 µM), for the others: at the highest dose activation (PINK1 increase), most hits filed as activators. PINK1 immunofluorescence, high-content cytometry, 24 h. 410,000 compounds, 0.2% hits. AID 624263; active = well fitted activation curve with a large enough effect; inconclusive = small, poorly fitted or top-dose-only effect; inactive = flat fitted curve, though single readings scatter; cell line not stated here;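 note: potency is the fitted concentration of half-maximal effect; % of control where 0% means no effect; nearly all actives have a fitted effect of over 65% in size; a mitochondrial uncoupler was the plate control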
#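 PINK1 protein, normally rapidly degraded, was detected by immunofluorescence after 24 hour compound treatment of a stable cell line. Titration data (5 concentrations) came from laser-scanning cytometry, with CCCP-treated wells as controls.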
# Sfp PPTase inh: Sfp phosphopantetheinyl transferase inhibition; Biochemical Sfp PPTase activity, qHTS; 310,000 compounds, 3.5% hits; Q9F4F7; Potency, µM, inactives show max response, negative = inhibition, actives largely listed as inhibitors; active = well fitted inhibition curve with a large enough effect; inconclusive = small, poorly fitted or top-dose-only effect, or another doubt; inactive = no such curve, though single readings can be large or run the other way;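 note: the enzyme is Sfp with the accession as filed and its product quenches rhodamine fluorescence; potency is the fitted concentration of half-maximal effect; 0% = enzyme reaction without inhibitor and -100% = no enzyme wells; top concentration of the series not given in the record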
#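 Step 1, compound plus 15 nM Sfp-PPTase, 15 min, room temperature. Step 2, add rhodamine-CoA (5 uM) and BHQ-2-YbbR (12.5 uM). Step 3, read 525/598 nm fluorescence at 0 and 30 min.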
# CtBP-E1A inh: blocks the CtBP interaction with E1A | AID 651724 | AlphaScreen GST-E1A/His-CtBP binding, 1536-well; hits give low values; control for the full effect not named in the record | activity change, % (no concentration beside the values) | 340,000 compounds, 0.49% hits; in the data active means activity change below about -65%; inconclusive means about -30% to -65%; inactive means above about -30%; note: % is set by controls: 0 for no effect and ±100 for the full control effect
#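 In 5 uL wells, 23 nL compound meets equimolar GST-E1A and His-CtBP (5X stock 125 nM each) for 2 h, 37 °C. Beads (5X, 50 ug/mL) then 1 h, 37 °C, dark.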
# D2 ag: agonists of human D2 dopamine receptor (beta-arrestin); P14416; AID 624465; 360,000 compounds, 0.084% hits; DiscoveRx PathHunter D2 beta-arrestin, luminescence, 90 min; 100% = 57 uM dopamine signal; activation, % (test concentration not listed); in the data active = activation above about 40%; inconclusive = about 15% to 40%; inactive = below about 15%; note: compound concentration not given in the record; the text of the record calls up to 30% inactive
#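 DiscoveRx PathHunter D2 beta-arrestin cells (2,100/well) attached overnight, then compound-stimulated 90 min at 37 C in HBSS/10 mM HEPES/0.1% Tween-20 buffer; beta-galactosidase complementation read by luminescence after 1 h at ambient temperature. Dopamine 57 uM final (EC100) as control.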
# D2 potentiator: human D2 receptor positive allosteric modulation; DiscoveRx D2 beta-arrestin cells, luminescence, 90 min; 100% = 57 uM dopamine signal; potentiation, % (no concentration beside the values); 360,000 compounds, 0.23% hits; AID 624464; active = potentiation of 50% or more; inconclusive = 30% to 50%; inactive = 30% or less;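 note: compound concentration not given in the record; tested on top of an EC20 dose of dopamine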
#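 D2 cells co-treated with compound plus 50 nM dopamine (EC20) for 90 min at 37 deg C to detect potentiation. Beta-arrestin recruitment was read as enzyme-fragment luminescence after 1 h at ambient temperature. Full response was set by 57 uM dopamine.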
# Six1-Eya2 blk: Six1/Eya2 interaction inhibition; activity change, % (concentration not given with the values); Q15475+O00167; 360,000 compounds, 0.56% hits; AID 651725; AlphaScreen GST-Six1/His-Eya2 binding, biochemical; hits give low values; control for the full effect not named in the record; in the data active = activity change below about -65%; inconclusive = about -30% to -65%; inactive = above about -30%; note: % is set by controls: 0 for no effect and ±100 for the full control effect
# Target sequence (O00167 whole entry, looked up): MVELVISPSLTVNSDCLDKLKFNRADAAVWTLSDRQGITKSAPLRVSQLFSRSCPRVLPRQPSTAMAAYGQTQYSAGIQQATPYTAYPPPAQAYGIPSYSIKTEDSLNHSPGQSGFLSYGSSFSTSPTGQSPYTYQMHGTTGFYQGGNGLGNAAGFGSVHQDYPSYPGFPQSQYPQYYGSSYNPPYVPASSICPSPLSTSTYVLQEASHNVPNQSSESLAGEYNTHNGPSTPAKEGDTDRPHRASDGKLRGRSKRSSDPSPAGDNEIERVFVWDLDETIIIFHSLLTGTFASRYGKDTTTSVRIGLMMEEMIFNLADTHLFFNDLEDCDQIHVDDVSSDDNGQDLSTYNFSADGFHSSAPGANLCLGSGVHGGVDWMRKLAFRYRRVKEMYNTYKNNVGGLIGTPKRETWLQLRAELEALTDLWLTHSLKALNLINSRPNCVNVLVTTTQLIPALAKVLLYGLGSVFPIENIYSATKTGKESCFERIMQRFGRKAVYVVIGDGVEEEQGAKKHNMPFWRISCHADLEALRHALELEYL
# Target sequence (Q15475 whole entry, looked up): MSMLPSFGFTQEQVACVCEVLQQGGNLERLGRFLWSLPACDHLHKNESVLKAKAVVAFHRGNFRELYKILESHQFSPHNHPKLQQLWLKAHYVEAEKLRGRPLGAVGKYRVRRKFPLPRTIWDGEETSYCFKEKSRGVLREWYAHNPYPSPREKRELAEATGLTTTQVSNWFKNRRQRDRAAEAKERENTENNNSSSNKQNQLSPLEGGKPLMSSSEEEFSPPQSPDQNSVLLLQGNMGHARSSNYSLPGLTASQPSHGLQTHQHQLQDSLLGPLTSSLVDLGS
#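 Homogeneous AlphaScreen proximity assay pairing GST-Six1 with His-tagged Eya2 (added as 5X mix: 250 nM and 500 nM) in 50 mM Tris pH 8.0, 300 mM NaCl, 1 mM TCEP. Glutathione donor and nickel acceptor beads; 1 h, 37 °C, dark.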
# TRPV1 PAM: potentiators of human vanilloid receptor 1 (TRPV1); Q8NER1; TRPV1-expressing cells, Fluo-8 calcium influx, capsaicin EC20 potentiation; host cell line not named in the record; control for the full effect not named in the record; potentiation, % at 8.33 µM; 320,000 compounds, 0.02% hits; AID 540277; active means potentiation above 80%; inconclusive means 30% to 80%; inactive means below 30%; note: 0% is about no effect
#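 Fluo-8 calcium influx in TRPV1-expressing cells, kinetic read (ex 480/em 520 nm). Compound added and read 3 min for agonist activity, followed by capsaicin at EC20 final and 2 min further read for enhancement.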
# Active calls of the source: *; ? = inconclusive; / = no result given; & = joins results of further samples; [ ] = another dose, or the depositor's remark.
SMILES,PINK1 modulator,Sfp PPTase inh,CtBP-E1A inh,D2 ag,D2 potentiator,Six1-Eya2 blk,TRPV1 PAM
CC(C)(C)c1ccc(OC(=O)Nc2ccc(O)c(C(=O)O)c2)cc1,-1.1%,50µM*,/,-2.1,12,-7,-17
CC(C)(C)c1ccc(C2CC2C(=O)N/N=C\c2ccc[nH]2)cc1 (stereo not drawn),?,15%,-23,5.9,-2,-29,-12
CCc1ccccc1N1C(=O)C2CC=CCC2C1=O (stereo not drawn),1.8%,-2%,9,-2.9,16,2,-4
COCCNS(=O)(=O)c1ccc2c(c1)C(=O)c1cc(S(=O)(=O)NCCOC)ccc1-2,/,16%,-5,-1.9,-7,6,1
Cc1cccc2c1-c1sc(C(=O)Nc3cccnc3)cc1CO2,0.8%,5%,9,0.9,-23,13,9
Fc1ccc(-c2[nH]ncc2CN(CC2CCC2)CC2CCCO2)c(F)c1 (stereo not drawn),0.6%,8%,6,-0.3,-6,2,-10
Oc1nc(Nc2cccc(Cl)c2)sc1/C=C1\C=Nc2ccccc21,11%,-2%,0,-5.5,-13,-21,7
COc1ccc(S(=O)(=O)N(C)C[C@@H]2OCc3cnnn3CCCC(=O)N([C@H](C)CO)C[C@@H]2C)cc1,-1.8%,/,1,-4.9,1,-5,/
Cn1cccc1Cc1nnc(SCC(=O)NC2CCCC2)n1CCc1ccccc1,-0.6%,-6%,-3,-3.3,-5,-5,/
CCSc1nnc(NC(=O)CSc2nnc(C)c(=O)n2N)s1,1.5%,-27%,-3,0.3,-7,-3,-1
CC1CCN(CC(=O)Nc2cc(C(F)(F)F)ccc2Cl)CC1,?,17%,8,-1.6,-26,6,4
COc1ccc(C(C(=O)NC(C)(C)C)N(CCc2ccc(OC)c(OC)c2)C(=O)CCC(=O)Nc2cc(C)on2)cc1 (stereo not drawn),15%,0%,-1,-5.2,-3,-2,24
NC(N)=NS(=O)(=O)c1ccc(NC(=S)NC(=O)Cc2ccc(Cl)cc2)cc1,-0.7%,-14%,/,0.7,4,-3,-5
CCCn1nc(NC(=O)CC(C)C)c2cc3ccccc3nc21,0.7%[38.3 µM],2%,12,-3.7,-2,13,-29
O=C(CN1C(=O)CSC1=O)N1CCCC(Nc2ccc(F)cc2)C1 (stereo not drawn),3.9%,-7%,3,-2.1,-4,10,-14
O=C(Cc1cccc2ccccc12)Nc1c(F)cccc1F,6.0%,7%,2,2.2,-6,4,3
COc1ccc(/C=N/NC(=O)CSc2n[nH]c(=O)[nH]c2=O)cc1,0.8%,12%,12,1.3,2,-4,8
c1cnc2c(c1)ncc1cscc12,1.5%,13%,/,-6.3,-5,-3,15
Cn1ncc(Cl)c1C(=O)Nc1cc(C(F)(F)F)ccc1F,23%[38.3 µM],12%,15,-1.2,-1,4,-4
C/C(NCCc1ccccc1)=C1/CCOC1=O,0.4%,/,2,-2.1,1,-3,/
COc1cc(C(=O)n2cnc3ccccc32)c([N+](=O)[O-])cc1OC,1.1%,-1%,3,-6.2,-4,-13,5
CCCCOc1ccc(C(=O)NC)cc1,0.7%,4%,3,-2.7,1,6,-14
O=C(Cc1ccc(S(=O)(=O)N2CCOCC2)s1)N1CCN(S(=O)(=O)c2ccc(Cl)cc2)CC1,-2.0%,/,-1,-2.4,-2,1,2
CC(C)CC(=O)Nc1cccc(-c2nc3ccccc3[nH]2)c1,1.7%&0.9%,15%,2,-4.1,2,0,4
Cc1ccc(NC(=O)C(=O)NN)cc1,-0.6%,5%,-6,-1.0,-6,-6,16
CCOC(=O)C1CCN(S(=O)(=O)c2ccc3c(c2)CC(C)N3C(=O)C2CCC2)CC1 (stereo not drawn),-1.4%,7%,/,-3.9,-5,4,3
COc1ccc(C(C(=O)NC(C)C)N(C(=O)CCC(=O)Nc2nccs2)c2ccccc2F)cc1 (stereo not drawn),-1.0%,11%,-4,-2.6,-2,1,-4
CN1CCN(C2CCCCC2NS(=O)(=O)c2ccccc2)CC1 (stereo not drawn),0.1%,7%,-15,-0.7,-20,-14,-9
O=C(N=C1SC2CS(=O)(=O)CC2N1Cc1ccccc1)C1CCCCC1 (stereo not drawn),1.0%,22%,2,-1.1,-6,-2,10
COc1ccc(NC(=O)C/C(C)=N/NC(=O)COc2ccc(OC)cc2)cc1,3.9%,4%,-9,-1.4,-4,3,3
Cc1nc2nc(CSc3nnc(C)s3)cc(=O)n2[nH]1,-1.5%&-3.5%,3%,-1&-7,0.8&0.8,-2&-12,4&12,?
O=C(CSc1nc2ccccc2c(=O)n1-c1ccc(F)c(Cl)c1)Nc1cccc(S(=O)(=O)N2CCOCC2)c1,1.7%,20%,-1,-0.9,-23,-2,1
Cn1ncc(C#N)c1/N=C/N1CCCC1,-1.0%,15%,5,-1.5,11,3,0
Cc1ccc(S(=O)(=O)N2CC=C(C(=O)NCc3ccccc3)CC2)cc1,1.7%,-13%,7,-3.0,-5,2,-1
Cc1cc(C)cc(C(=O)OCC(=O)Nc2ncccn2)c1,0.6%,/,/,-0.5,0,-4,-7
Cn1cnnc1Sc1ccc(C(=O)OCC(=O)Nc2ccccc2)cc1[N+](=O)[O-],-0.9%,2%,-1,-3.2,0,-2,9
CSc1nc(O)c(N=Nc2ccc(F)cc2F)c(=O)[nH]1,1.9%,-7%,/,-12,-9,6,21
COc1ccccc1CN(CC(=O)NCC1CCCO1)C(=O)CNS(=O)(=O)c1ccc(C)cc1 (stereo not drawn),-1.2%,10%,-14,-0.7,?,-2,20
Cc1ccccc1N/N=C/c1ccc(N2CCOCC2)cc1,-1.6%[38.3 µM],8%,9,1.2,-7,-1,-1
Cc1ccc(-c2cccc(NC(=O)C3C4C=CC(C4)C3C(=O)O)c2)o1 (stereo not drawn),-2.6%,35µM*,-2,2.4,0,-8,7
O=C(NNC(=S)Nc1ccc(Br)cc1)c1cccnc1,0.5%,22%,3,-5.8,-19,-6,-3
COCc1[nH]nc2c1C(c1sccc1C)C(C#N)=C(N)O2 (stereo not drawn),-0.4%,-13%,6,-3.5,-17,8,-7
Cc1cccc(CCNS(=O)(=O)c2ccc(S(=O)(=O)NC3CCCC3)cc2)c1,2.8%,5%,-2,0.7,8,9,4
Cc1ccc2nc(SCC(=O)c3c[nH]c4ccccc34)[nH]c2c1,4.8%,-30%,-21,-1.2,1,5,8
O=C1NC(=O)/C(=C/c2cc3c(cc2Br)OCO3)S1,-0.3%,-3%,?,-5.5,-1,-5,14
COc1cc2[nH]c3c(OC)ncnc3c2cc1OC,0.0%,-5%,?,4.6,-1,?,28
Cc1nc(SCC(=O)NCc2ccc3c(c2)OCO3)c(C#N)c2c1CCCC2,-2.8%,12%,1,-1.1,1,-3,-5
c1cc(C2CCCCC2)ccc1Oc1nc(N2CCOCC2)nc(N2CCOCC2)n1,3.3%,0%,2,-7.5,-18,2,-1
CC(O)(c1cccc(F)c1)c1nc(-c2cccc(C#N)c2)cs1 (stereo not drawn),6.3%,/,6,-3.8,4,10,/
OC(c1cccs1)c1nccc2ccccc12 (stereo not drawn),-0.4%,-1%,-10,-2.8,9,-1,3
O=[N+]([O-])c1ccc(F)cc1OCc1cccc(S(=O)(=O)N2CCOCC2)c1,2.6%,/,-2,-0.9,2,-17,-21
COc1ccc(NC(=O)COC(=O)C2CC3C=CC2C3)cc1 (stereo not drawn),-0.3%,19%,/,4.5,-5,0,1
O=C(N/N=C/C(Br)=C/c1ccccc1)C1CC1,5.3%,-3%,7,0.0,-8,-1,0
CC(C)CCNC(=O)COC(=O)c1ccc(Br)o1,-0.9%,4%,3,-1.3,-28,-1,-4
Cc1cc(NC(=O)Cn2c(=O)c3c(ncn3CCC(C)C)n(Cc3ccccc3)c2=O)no1,/,11%&7%,-1,-1.2,-12,-4,4&-5
CCN(CC(=O)N1CCCC1)S(=O)(=O)c1ccc(OC)cc1,-0.4%,20%,6,-4.5,-1,15,-55
CC1CC(C)CN(C(=O)C(NS(=O)(=O)c2ccc3c(c2)oc(=O)n3C)C(C)C)C1 (stereo not drawn),-0.3%,1%,0,-2.7,-7,10,/
CCOC(=O)CCCNC(=O)c1cncc(O)c1,-1.6%,17%,5,-2.4,-3,1,5
NC(=O)c1ccc(NC(=O)CNC(c2ccccc2)c2ccccc2)cc1,2.4%,0%,-2,-3.9,-6,0,-30
CC(C)(C)c1nc(N2CCN(C(=O)c3ccco3)CC2)c2nnn(Cc3ccccc3)c2n1,?,?,-10,0.4,2,-25,-9
C/C(=N/NC(=O)c1cc(C(C)C)[nH]n1)c1cccs1,-1.4%,10%,2,-3.0,-23,0,-8
CSc1nc2ccccc2n1CC(=O)Nc1ccc(C)c(C)c1,5.5%,-3%,2,-1.4,-12,3,13
C#CCOCCOCCOCCNc1nc(N2CCN(C(=O)[C@H]([C@@H](C)CC)n3cc([C@@H](N)Cc4ccc(O)cc4)nn3)CC2)nc(N2CCN(C(=O)[C@H]([C@@H](C)CC)n3cc([C@@H](N)Cc4ccc(O)cc4)nn3)CC2)n1,1.7%,15%,-6,-2.7,-20,-10,25

# A few values from the list:
# Under CtBP-E1A inh, CC1CC(C)CN(C(=O)C(NS(=O)(=O)c2ccc3c(c2)oc(=O)n3C)C(C)C)C1 (stereo not drawn) is entered as 0
# Under PINK1 modulator, COc1ccc(NC(=O)COC(=O)C2CC3C=CC2C3)cc1 (stereo not drawn) is entered as -0.3%

# 3 entries already listed, ordered by their value in CtBP-E1A inh, rising.
Compound,Sfp PPTase inh,CtBP-E1A inh,D2 ag,D2 potentiator,Six1-Eya2 blk
C#CCOCCOCCOCCNc1nc(N2CCN(C(=O)[C@H]([C@@H](C)CC)n3cc([C@@H](N)Cc4ccc(O)cc4)nn3)CC2)nc(N2CCN(C(=O)[C@H]([C@@H](C)CC)n3cc([C@@H](N)Cc4ccc(O)cc4)nn3)CC2)n1,15%,-6,-2.7,-20,-10
O=[N+]([O-])c1ccc(F)cc1OCc1cccc(S(=O)(=O)N2CCOCC2)c1,/,-2,-0.9,2,-17
CCOC(=O)CCCNC(=O)c1cncc(O)c1,17%,5,-2.4,-3,1

# Random draw from the library, and some 3.7% of all compounds hit somewhere here.
